Screening data deposited in PubChem BioAssay by Broad Institute.
Hedgehog = Hh protein inhibition, biochemical readout – plate reader, single concentration, primary screen (AID 588832); Biochemical plate reader assay, Hedgehog inhibition; active compounds read high; inhibition, % at 30.3 µM; 8,000 tested, under 10 active; in the data active = inhibition from about 57%;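 also: 0% = neutral control wells and 100% = positive control wells; cholesterol-driven self-cleavage of fly hedgehog protein by fluorescence polarization; read one hour after cholesterol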
* marks the source's active call; other numbers are inactive results. Some of the compounds tested; count on the stated rates, not on these rows.

SMILES | Hedgehog
CC(C)Cc1cc(C(=O)NCc2cccnc2)no1 | 5.2
COC(=O)c1cc(NC2c3ccccc3C(=O)N2c2cccnc2)cc(C(=O)OC)c1 (stereo unspecified) | 3.4
CCC(=O)N1CCN=C1SCc1ccccc1 | 5.4
O=C(CSc1nnc(Cc2cc(=O)[nH]c(=O)[nH]2)n1-c1ccc(F)cc1)N1CCCCC1 | 11.1
COc1ccc(CCN2CC(C#N)=C3c4cc(OC)c(OC)cc4CCN3C2)cc1OC | 8.7
CN1CCN(c2cc(=O)n(C3CCCCC3)c(=O)[nH]2)CC1 | 19.1
COc1c(OC)c2[nH]c(=O)cc3c4ccccc4n(c1=O)c23 | 0.0
CCOC(=O)c1cc2c(s1)-c1c(C)cccc1OC2 | 3.5
CCCOc1ccc(CNC(=O)C2CCN(C(=O)N3CCOc4ccccc43)CC2)cc1 | 6.8
CC(C)Cn1c(CN2CCCCC2C)nc2c1c(=O)n(C)c(=O)n2C (stereo unspecified) | 3.7
Cn1cccc1Cc1nnc(SCC(=O)Nc2ccc(F)cc2)n1CCc1ccccc1 | 17.4
COc1cccc(C(=O)NC(C)C(c2cccs2)N2CCOCC2)c1 (stereo unspecified) | 19.1
O=C(Cn1cc2c(n1)CCCCC2)NCc1cccs1 | 16.7
Cc1c(NS(=O)(=O)c2ccc3c(c2)OCCO3)cccc1-c1nc2cccnc2s1 | 3.4
CCc1nc(SCC(=O)N2CCOCC2)c2c(=O)n(C)c(=O)n(C)c2n1 | 1.8
O=C1c2ccccc2C(O)N1c1ccc(Cl)cc1 (stereo unspecified) | 19.1
CCCCN(CCCC)CCn1cnc2c([nH]c3ccc(OC)cc32)c1=O | 9.7
CN(c1nnc(N)s1)C1CCCCC1 | 8.7
NC(=O)N1c2ccccc2C=Cc2ccccc21 | 7.1
Cc1cc2c(cc1S(=O)(=O)N1CCN(c3ccccc3)CC1)OCC(=O)N2 | 10.9
COc1ccc(C(=O)N2CCN(c3ccc(C)cc3C)CC2)cc1OC | 12.5
CC(C)OCC1CO1 (stereo unspecified) | 3.6
O=C(NCc1ccc(F)cc1)c1ccc(Cl)c(NC2=NC3CS(=O)(=O)CC3S2)c1 (stereo unspecified) | 6.8
Cc1nnc(NC(=O)c2cccc(S(=O)(=O)N3CC(c4ccccc4)CC3=O)c2)s1 (stereo unspecified) | 4.5
O=C1CC(c2ccccc2)C(C(=O)O)N1 (stereo unspecified) | 3.6
O=C(CSc1nnc(C2COc3ccccc3O2)o1)N1CCCCC1 (stereo unspecified) | 17.4
Cc1ccc2c(c1)C(c1ccccc1)N(C(=O)c1ccc(Br)o1)CC(=O)N2 (stereo unspecified) | 5.4
COc1cc([C@H]2Oc3c(OC)cc(CCCO[C@@H]4O[C@H](CO)[C@@H](O)[C@H](O)[C@H]4O)cc3[C@@H]2CO)ccc1O | 4.9
CC1CC(C)CN(C(=O)CSc2nnc(-c3ccc(F)cc3)o2)C1 (stereo unspecified) | -2.2
O=C(C(Cc1ccccc1)n1cccc1)N1CCN(c2cccc(Cl)c2)CC1 (stereo unspecified) | 7.7
Cn1c(=O)[nH]c(=O)c2c1nc(N1CCCCC1)n2CCSc1ncccn1 | 5.2
CC(=O)c1ccc(NC(=O)CN2C(=O)COc3ccc(Cl)cc32)cc1 | 12.5
CSCC[C@H](NC(=O)N1CCn2c1nc1ccccc12)C(=O)N[C@@H](C(=O)O)c1ccccc1 | -1.8
Clc1cccc(Cc2nn[nH]n2)c1 | 16.7
Cc1cc2c(cc1S(=O)(=O)N(C)Cc1ccccc1)OCC(=O)N2 | 7.0
COc1ccc(-c2coc3cc(OC(C)=O)c(OC)cc3c2=O)cc1 | 4.9
O=C(CCCCCNC(=O)N1CCn2c1nc1ccccc12)N[C@@H](Cc1ccccc1)C(=O)O | 8.8
CC(=O)NC(CCS(C)(=O)=O)C(=O)Nc1cccc2ccccc12 (stereo unspecified) | 2.6
CCOC(=O)c1[nH]c2c(c1-c1ccccc1)C(=O)CC(c1ccc(OCC)cc1)C2 (stereo unspecified) | 4.2
COc1ccccc1OC(C)C(=O)N(Cc1ccco1)C1CCS(=O)(=O)C1 (stereo unspecified) | 8.8
CCOC(=O)N1CCN(C(=O)CSc2nnc(-c3cccs3)o2)CC1 | 11.1
C/C=C/C=C/C(=O)[C@@H]1[C@@H]([C@]2(C)OC(=O)C(C)=C2O)[C@H]2/C(=C(O)/C=C/C=C/C)C(=O)[C@]1(C)C(=O)C2(C)O (stereo partly specified) | 8.2
Cn1c(=O)oc2cc(S(=O)(=O)N3CCC(N4CCCCC4)CC3)ccc21 | 5.2
CC(C)C(=O)Nc1nc2c(ncn2C2CC(O)C(CO)O2)c(=O)[nH]1 (stereo unspecified) | 8.2
CC(C)CCn1c(CN2CC(C)OC(C)C2)nc2c1c(=O)n(C)c(=O)n2C (stereo unspecified) | 8.7
CN(C)c1ccc(CNC(=O)c2cc(S(=O)(=O)N3CCCC3)cn2C)cc1 | 12.8
COc1ccc(C2CC(c3ccccc3)Nc3ncnn32)cc1 (stereo unspecified) | -4.2
Cc1ccc(NC(=S)NCc2ccc3[nH]c4c(c3c2)CCCC4)cc1 | 4.4
CCc1cc(=O)oc2c(C)c(OC(C)C(=O)NCC3CCC(C(=O)O)CC3)ccc12 (stereo unspecified) | 5.2
CCCCNC(=O)c1ccc(CS(=O)(=O)c2ccc(OC)cc2)o1 | 8.3
COc1ccc(-c2nc(CS(=O)CC(=O)N3CCCC3)c(C)o2)cc1 (stereo unspecified) | 0.9
COc1ccc(-c2cn3c(C)c(C(=O)N4CCN(c5ccccc5F)CC4)sc3n2)cc1 | 5.4
CSC1=NCCN1C(=O)Cc1ccc(F)cc1 | -1.9
COc1ccccc1-n1c(SCC(=O)N2CCc3ccccc32)nc2c(c1=O)SCC2 | -0.1
COc1ccc(-c2nc(CS(=O)CC(=O)NC3CCCc4ccccc43)c(C)o2)cc1OC (stereo unspecified) | 4.6
COc1ccc(N2C(=O)C3CCCN3C2c2ccc(Cl)cc2)cc1 (stereo unspecified) | 4.2
CCOC(=O)c1c(NC(=O)C(C)Sc2cn(C)c3ccccc23)sc2c1CCC2 (stereo unspecified) | 7.1
O=C(NC1CCCCCC1)C1C2C=CC3(CN(Cc4cccnc4)C(=O)C13)O2 (stereo unspecified) | 5.1
COc1cc2c(cc1OC)C(c1ccccc1)N(C(=O)c1ccco1)CC2 (stereo unspecified) | 6.3
O=C(O)C1C2C=CC3(CN(Cc4ccco4)C(=O)C13)O2 (stereo unspecified) | 8.7

The list goes on:
SMILES | Hedgehog
COC(=O)C1CCN(C(=O)C2CCN(C(=O)[C@H](C)NS(=O)(=O)c3ccc(C)cc3)CC2)CC1 | 8.1
COc1ccc(NC(=O)c2cc(S(=O)(=O)N3CCc4ccccc43)cn2C)c(OC)c1 | 11.8
CC1Cc2ccccc2N1C(=O)c1cnc2n(c1=O)CCS2 (stereo unspecified) | 0.9
CC1CCN(C(=O)CSCC(=O)Nc2nc(-c3cccs3)cs2)CC1 | -0.1
C=CC[C@]12C[C@@H](OC)C(=O)C=C1O[C@@H](c1ccc(OC)c(OC)c1)[C@H]2C | 8.6
C#CCn1c(=NC(=O)CSC(C)=O)sc2cc(F)ccc21 | 0.0
Cc1cccn2cc(CNC(=O)c3ccc(Br)o3)nc12 | 3.5
CN1CCCC1c1cccnc1 (stereo unspecified) | 6.8
CCOc1ccc(/C=N/NC(=O)c2ccc(O)cc2)cc1CN1CC2CC(C1)c1cccc(=O)n1C2 (stereo unspecified) | 3.6
Cc1ccc(S(N)(=O)=O)cc1 | 0.0
C[C@H](NC(=O)C1(c2ccccc2)CCN(C(=O)OC(C)(C)C)CC1)C(=O)N[C@@H](C(=O)O)c1ccccc1 | 9.0
CSCCC(NS(=O)(=O)c1ccc2c(c1)oc(=O)n2C)C(=O)NC1CCCCC1 (stereo unspecified) | -3.6

The list goes on; the last 5 above are carried over.
SMILES | Hedgehog
CN1CCCC1c1cccnc1 (stereo unspecified) | 6.8
CCOc1ccc(/C=N/NC(=O)c2ccc(O)cc2)cc1CN1CC2CC(C1)c1cccc(=O)n1C2 (stereo unspecified) | 3.6
Cc1ccc(S(N)(=O)=O)cc1 | 0.0
C[C@H](NC(=O)C1(c2ccccc2)CCN(C(=O)OC(C)(C)C)CC1)C(=O)N[C@@H](C(=O)O)c1ccccc1 | 9.0
CSCCC(NS(=O)(=O)c1ccc2c(c1)oc(=O)n2C)C(=O)NC1CCCCC1 (stereo unspecified) | -3.6
CC1CCCCN1CCn1cnc2c([nH]c3ccccc32)c1=O (stereo unspecified) | 4.6
CCCCCn1c(C(C)NC(=O)CCC)nc2ccccc21 (stereo unspecified) | 9.0
CCn1c(=O)cc(OCC(=O)NCCC(C)C)c2ccccc21 | 14.9
Cc1cc(SCC(=O)c2ccccc2)n2nc(C)nc2n1 | -2.2
COc1ccc(/C=C/C(=O)c2ccc(O)cc2)cc1 | 1.7
Cc1ccc(-c2nc(CS(=O)CC(=O)NC3CCCC3)c(C)o2)cc1 (stereo unspecified) | 2.7
Cc1oc(-c2ccccc2Cl)nc1CS(=O)(=O)CC(=O)NC(C)c1ccccc1 (stereo unspecified) | 14.5
COc1ccc(S(=O)(=O)Cc2ccc(C(=O)N3CC(C)CC(C)C3)o2)cc1 (stereo unspecified) | 11.1
CCOC(=O)N1CCC(NC(=O)c2cnc3n(c2=O)CCS3)CC1 | 5.4
CN(C)S(=O)(=O)c1ccc2c(c1)c(=O)c(C(=O)N1CCOCC1)cn2C | -4.5
CC(=O)Nc1nc2c(F)cccc2s1 | 3.6
COC(=O)c1ccccc1NC(=O)CCS(=O)(=O)c1cc2c(cc1C)NC(=O)CO2 | 0.9
O=C(CSC1=NC2(CCCCC2)N=C1c1ccccc1)Nc1ccc2c(c1)OCCO2 | 16.7
Cc1cc(Nc2cccc(C)c2C)n2nc(C)nc2n1 | 10.0
Cc1ccccc1-c1nnc(NC(=O)c2ccc(N3C(=O)CCC3=O)cc2)s1 | 3.6
O=c1ccn(C2CCCCC2)c(=O)[nH]1 | 8.6
Cn1c(Cn2c(=O)sc3ccccc32)nnc1SCC(=O)N1CCCCCC1 | 29.2
O=C(c1cnc2n(c1=O)CCS2)N(C1CCCCC1)C1CCCCC1 | 3.3
Cc1ccc(CSc2nnc(Cn3c(=O)sc4ccccc43)n2C)cc1 | 10.0
CC(C)Cc1cc(C(=O)Nc2ccc(F)cc2F)no1 | 5.4
Cc1ccc2oc(=O)n(CCOc3ccccc3Cl)c2c1 | 0.0
Cc1ccc(C)c(N2CCN(S(=O)(=O)c3ccc4c(c3)CCN4C(=O)CCC(=O)O)CC2)c1 | 2.7
O=c1c(-c2ccc(O)cc2O)coc2cc(O)cc(O)c12 | 5.2
Cc1coc2c(C)c3oc(=O)c(CCC(=O)NCc4ccccn4)c(C)c3cc12 | 3.6
CC(=O)c1c(C)nn(C(=O)c2cccs2)c1C | 2.7
Cc1oc(-c2ccccc2F)nc1CS(=O)(=O)CC(=O)N1CCCCCC1 | 3.6
CC1(C)C[C@H](O)[C@]2(CO)CC[C@]3(C)C(=CCC4[C@@]5(C)CC[C@H](O)C(C)(C)C5CC[C@]43C)[C@@H]2C1 (stereo partly specified) | 6.9
CN(C)CCNC(=O)c1ccc(CS(=O)(=O)c2ccc(Br)cc2)o1 | 14.9
OCCNCCO | 1.7
O=C(c1cc(C2CC2)on1)N1CCN(c2ccccc2)CC1 | 7.1
O=C(Cn1nc(Cc2cccnc2)c2ccccc2c1=O)NCCCN1CCCC1=O | 5.0
COc1ccc(Br)cc1CNC(=O)CCC(=O)N1CCSc2ccccc21 | 11.8
COC(=O)Cn1c(=NC(=O)CSCC(=O)Nc2cc(C)on2)sc2ccccc21 | 9.5
O=C(Cn1cc2c(n1)CCCC2)N1CCOCC1 | 8.3
Cc1c(C)c2ccc(OCC(=O)N3CC[C@@]4(O)CCCC[C@H]4C3)c(C)c2oc1=O | 1.7
CC(=O)NC(CCS(C)(=O)=O)C(=O)Nc1cccc(Cl)c1Cl (stereo unspecified) | 3.6
Cc1ccc(-c2nc3cccnc3s2)cc1NS(C)(=O)=O | 7.1
CCN(CC)CCNC(=O)c1ccc(NC2=NC3CS(=O)(=O)CC3S2)cc1 (stereo unspecified) | -1.8
CC1CCCN(C(=O)C(=O)Nc2ccc3nc4n(c(=O)c3c2)CCCCC4)C1 (stereo unspecified) | 0.0
C=C1C(=O)C23C(O)C1CCC2C12COC3(O)C(O)C1C(C)(C)CCC2O (stereo unspecified) | 6.9
COC(=O)COc1ccc(NC(=O)Cn2nc(-c3ccccc3)c3ccccc3c2=O)cc1 | -1.9
COc1ccc2c(c1)oc(=O)c1cc(OC)ccc12 | 1.7
CCCCC(NC(C)=O)c1nc2ccccc2[nH]1 (stereo unspecified) | 5.4
Cc1ccc(OCCNC(=O)c2ccccc2N)cc1 | 0.0
O=C1c2ccccc2C(Nc2ccc3c(c2)OCCO3)N1c1ccccn1 (stereo unspecified) | 6.5
COCCOC(=O)c1[nH]c2c(c1C)C(=O)CC(c1cc(OC)ccc1OC)C2 (stereo unspecified) | 14.9
Cc1ccc(-c2nc(CS(=O)(=O)CC(=O)N3CC(C)CC(C)C3)c(C)o2)cc1 (stereo unspecified) | 5.2
CC(NC(=O)c1cccnc1)C(c1cccs1)N1CCN(C)CC1 (stereo unspecified) | 9.6
CCOC(=O)N1CCc2c(sc(NC(=O)c3ccc(S(=O)(=O)N4CCCC4)cc3)c2C#N)C1 | 0.0
Cc1nnc(NC(=O)CSc2cn(Cc3ccccc3)c3ccccc23)s1 | 5.1
O=C(NCc1ccc2c(c1)OCO2)c1cccc2c1C(=O)N(C1CCCCC1)C2 | 5.0
CCn1c(SCC(=O)NC2CCCC2)nnc1-c1c[nH]c2ccccc12 | 4.6
Cc1ccc(C)c(NC(=O)c2cc(S(=O)(=O)N3CCOCC3)cn2C)c1 | 3.6
Cc1ccc(S(=O)(=O)N2CCCC2C(=O)Nc2ccc(O)cc2)cc1 (stereo unspecified) | 24.3
